CBX7 inh: inhibitors of human CBX7 binding to H3K27me3 peptide. normalised signal (fraction of DMSO) (test concentration not listed). O95931. AID 1224903. AlphaScreen His6-CBX7 / biotin-H3K27me3 peptide binding; hits give low values. actives 1.1% (n = 66,000); in the data active = normalised signal below about 0.5;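 also: 100 nL library stock added to about 20 µL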
Target sequence (O95931 whole entry, looked up): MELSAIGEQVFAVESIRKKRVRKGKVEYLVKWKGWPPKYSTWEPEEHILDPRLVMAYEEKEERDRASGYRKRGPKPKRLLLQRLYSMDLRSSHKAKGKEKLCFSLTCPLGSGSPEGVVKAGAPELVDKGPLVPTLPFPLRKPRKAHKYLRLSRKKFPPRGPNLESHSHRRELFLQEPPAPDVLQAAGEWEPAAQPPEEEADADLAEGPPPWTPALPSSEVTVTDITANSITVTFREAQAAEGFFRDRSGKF
CBX7 inh z-score: further read-out of CBX7 inh, marked with its call; z-score; measured here: z-score of CBX7 signal; some inactives read as strong as hits; reference of the scale not given here;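 same signal on another scale; lower means less binding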
The depositor's hits bear a star. A portion of the library; rates above refer to the full screens.

entry	Molecule	CBX7 inh	CBX7 inh z-score
1	C=CCN(C(=O)Cn1c(SCc2cccc(C)c2)nc2ccncc21)c1ccccc1	0.96	-0.62
2	O=C(CCn1nc(-c2ccc(Cl)cc2)c2ccccc2c1=O)NCCN1CCOCC1	0.98	-0.55
3	CC1CCCN(C(=O)c2n[nH]c(=O)c3ccccc23)C1 (centres undefined)	0.98	-0.32
4	O=C(CCCCn1c(=O)[nH]c2ccsc2c1=O)NC1CCN(Cc2ccccc2)CC1	1	-0.076
5	CC1(C)CC(=O)C2=C(C1)N(c1ccc(C(F)(F)F)cc1)C(=O)CC2c1ccsc1 (centres undefined)	0.99	-0.089
6	Cc1cc(=O)n2nc(N3CCCC(C(=O)NCCCN4C(C)CCCC4C)C3)sc2n1 (centres undefined)	0.65	-2.7
7	COc1cccc(N2C(=O)N(c3ccccc3C)C3CS(=O)(=O)CC32)c1 (centres undefined)	0.96	-0.89
8	O=C(CCNS(=O)(=O)c1ccc2c(c1)CCC(=O)N2)Nc1ccc(Cl)cc1	0.98	-1
9	CCN(CC)CCNC(=O)Cn1ncc2c1-c1ccccc1OC2	1	0.26
10	O=C(NCCN=C1NS(=O)(=O)c2ccccc21)c1ccccc1	0.98	-0.4
11	Cc1ccc2nsnc2c1NC(=O)Cc1ccc(Cl)cc1	1.2	1.4
12	COCCCNC(=O)C1c2cc(OC)c(OC)cc2C(=O)N2CCc3ccccc3C12 (centres undefined)	0.97	-0.96
13	O=C(NC1CCCCCC1)C1CCCN(S(=O)(=O)c2cccs2)C1 (centres undefined)	0.99	-0.0096
14	Cc1oc(-c2cccs2)nc1CSCC(=O)NCc1ccccc1	0.97	-0.55
15	CCOCCCN1CC(C(=O)NCCc2ccc(Cl)cc2)CC1=O (centres undefined)	0.92	-1.9
16	O=C(c1ccc(S(=O)(=O)N2CCCCC2)cc1)N1CCCCC1c1cccnc1 (centres undefined)	0.86	-2.2
17	COc1ccc(-c2nnc(NC(=O)c3ccc(Cl)cc3)o2)cc1	0.55	-5
18	FC(F)(F)C(F)(F)c1nnc2c3ccccc3c(N3CCOCC3)nn12	1	0.94
19	COc1ccc(N2CCN(CCCNC(=O)c3csc4c3CCCCC4)CC2)cc1	0.88	-3.1
20	CC1CCCN(S(=O)(=O)c2ccc(C(=O)Nc3nc(-c4ccncc4)cs3)cc2)C1 (centres undefined)	1.1	1.6
21	CCc1ccc(NS(=O)(=O)c2ccc3[nH]cc(C(=O)NCCc4cccc(C)c4)c(=O)c3c2)cc1	1	0.22
22	O=C(Nc1c(C(=O)Nc2ccc(F)cc2)oc2ccccc12)c1cccc(F)c1	1.1	4.4
23	CCCCNS(=O)(=O)c1ccc2nc(-c3cccs3)cc(C(=O)NC3CC3)c2c1	1	0.18
24	CCCCCCCc1ccc(-c2ccc(O)c(F)c2)nc1	0.76	-5.1
25	CC(C)C(=O)Nc1nnc(-c2ccccc2SCc2ccccc2)s1	1.1	0.23
26	Cc1ccccc1Nc1cc(C(=O)NCC2CCCO2)c2ccccc2n1 (centres undefined)	1.2	2.6
27	CCc1ccc(NS(=O)(=O)c2ccc3[nH]cc(C(=O)NCCC(C)C)c(=O)c3c2)cc1	0.94	-1.5
28	CCN(CC)C(=O)C1CC(c2ccc(F)cc2)=NO1 (centres undefined)	1	1.4
29	Cc1cc(Br)ccc1NC(=O)c1cnc(N2CCN(c3ccccn3)CC2)c2ccccc12	1.1	1.4
30	O=C(NCc1ccccc1)c1ccc2c(c1)N(Cc1ccc(F)cc1)C(=O)CS2	0.87	-1.3
31	Clc1ccc(/C=C/c2nc3ccccc3n2CCOc2ccccc2)cc1	1.8	39
32	CCOC(=O)Cc1csc(NC(=O)CCN2C(=O)c3ccccc3C2=O)n1	0.99	-0.28
33	CC(=O)Nc1ccc(Nc2nc3cc(C)ccc3nc2NS(=O)(=O)c2ccc(Cl)cc2)cc1	0.8	-0.23
34	CCOC(=O)c1cc(-c2cc(OC)ccc2OC)no1	1.4	10
35	CCCc1ccc(Oc2cn[nH]c2-c2ccc(OC)c(C)c2O)cc1	0.7	-1.4
36	CC(NC(=O)CN1CCN(Cc2ccc(Cl)cc2)C1=O)c1ccccc1 (centres undefined)	0.91	-1.3
37	CCOc1ccc2c(=O)c(-c3ccccc3OC)coc2c1	1.1	1.9
38	CCOc1ccc(C(=O)Nc2nc3c(OC)cccc3s2)cc1	1.2	1.7
39	Cc1ccc(Cl)cc1N1CCN(C(=O)CN2CC(c3ccccc3)CC2=O)CC1 (centres undefined)	1	0.18
40	O=C(NCc1ccccn1)c1ccccc1C(=O)c1ccccc1	1	0.8
41	CCC1Oc2ccc(Cl)cc2N(CC(=O)NCCOC)C1=O (centres undefined)	0.81	-3.3
42	O=C(O)c1cccc(-n2c(/C=C\c3ccc(F)c(F)c3)nc3ccccc3c2=O)c1	1.1	1.5
43	O=C(Cn1nc(-c2ccccc2)c2ccccc21)NC1CCCCCC1	1.3	3.7
44	COc1ccc(-c2noc(CCC(=O)NCCC3=CCCCC3)n2)cc1	1	0.48
45	COC(CNC(=O)c1ccc2c(c1)ncn2-c1cc(C)cc(C)c1)OC	1	0.69
46	COc1ccc(C2C(C(C)=O)=C(O)C(=O)N2CCCn2ccnc2)cc1OC (centres undefined)	0.95	-1.1
47	COc1ccc(-c2noc(-c3c(-c4ccccc4Cl)noc3C)n2)cc1	1	0.46
48	COc1ccc(NC(=O)CNC(=O)Cn2ccc3ccccc3c2=O)c(OC)c1	0.96	-0.4
49	COc1ccc(Cl)cc1NC(=O)C1c2cc(OC)c(OC)cc2C(=O)N(C)C1c1ccccc1F (centres undefined)	1.1	1.2
50	CCOC(=O)CN1CC23C=CC(O2)C(C(=O)Nc2ccc(CC)cc2)C3C1=O (centres undefined)	1	1.3

Next section:
entry	Molecule	CBX7 inh	CBX7 inh z-score
51	Cc1cccc2c1-c1sc(C(=O)NC3CCCCCC3)cc1CO2	1.4	15
52	COc1ccc(-c2nc(C(=O)NCCc3ccc(Cl)cc3)c(C)o2)cc1OC	1	-0.038
53	CCOC(=O)c1nc(Nc2ccc(Oc3ccc(Cl)cc3)cc2)c2ccccc2n1	1	0.95
54	Cc1c(C(=O)NCc2c(F)cc(F)cc2F)oc2ccc(S(=O)(=O)N3CCC(C)CC3)cc12	0.92	-0.77
55	NS(=O)(=O)c1ccc(CNC2CC(=O)N(c3ccc(Cl)cc3)C2=O)cc1 (centres undefined)	1	0.098
56	COc1ccc(-n2c(Cc3cc(=O)[nH]c(=O)[nH]3)nnc2SCC(=O)N2CCCCCC2)cc1	0.84	-2.5
57	CCCc1sc(Nc2cccc(Cl)c2)nc1-c1ccccc1	0.95	-1
58	CCCCn1c(CNC(=O)c2ccccc2)nc2ccccc21	1	0.55
59	COc1ccccc1NC(=O)CSc1nnc(Cc2cc(=O)[nH]c(=O)[nH]2)n1-c1ccc(Cl)cc1	0.98	-0.044
60	O=C(CC1Sc2ccc(C(F)(F)F)cc2NC1=O)Nc1ccc(OC(F)F)cc1 (centres undefined)	1	0.033
61	O=C1c2ccccc2S(=O)(=O)c2cc(-c3nn[nH]n3)ccc21	1	-0.062
62	COc1ccc(-n2c3c(cc(C(=O)Nc4cccc(F)c4)c2=O)C(=O)CCC3)cc1	1.1	0.99
63	COc1ccc(N(Cc2nnc3n2CCCCC3)C(=O)Nc2ccc(Cl)c(Cl)c2)cc1	0.88	-2.3
64	COc1ccc(CNC(=O)C(CC(C)C)NS(=O)(=O)c2ccc3c(c2)CCN3C(C)=O)cc1 (centres undefined)	0.96	-0.62
65	CCOc1cc2c(cc1OCC)C(c1cc(C)c(OC)cc1C)NCC2 (centres undefined)	1	-0.078
66	COc1ccc(NC(=O)c2cc(S(=O)(=O)N3CCCCCC3)ccc2F)cc1	1	0.1
67	CCC(C)(NC(=O)c1ccc(=O)[nH]c1)C(=O)NC1CCCCC1 (centres undefined)	1.1	3.6
68	CCCN1Cc2cccc(C(=O)Nc3ccccc3F)c2C1=O	1.1	0.68
69	Cc1ccc(NC(=O)C2(NS(=O)(=O)c3cccc4cccnc34)CCCCC2)cc1C	0.97	-1.5
70	CC(C)=C1C2C=CC1C1C(=O)N(c3ccccn3)C(=O)C21 (centres undefined)	0.89	-1.5
71	CCOC(=O)C1CCCN(c2c(NCc3cccs3)c(=O)c2=O)C1 (centres undefined)	1	0.66
72	COc1ccc(-c2nn(C)c(=O)c3ccccc23)cc1CNC(=O)Nc1ccccc1	1	0.19
73	Cc1ccccc1OCc1nc(-c2ccc(NC(=O)c3cccs3)cc2)no1	0.99	-0.18
74	CCCCOCC(O)CN1CCN(c2ccccc2)CC1 (centres undefined)	0.97	-0.069
75	CCC1=Nc2cc(C(=O)NCc3cccs3)ccc2Sc2ccc(Cl)cc21	1	0.69
76	COc1ccc(CC(=O)Nc2ncc(Cc3cccc4ccccc34)s2)cc1	1	0.58
77	O=C(CC1NC2CCCCC2NC1=O)Nc1ccc(Oc2ccccc2)cc1 (centres undefined)	1	1.3
78	COC(=O)CCSc1nc2c(c(=O)[nH]1)C(C)(C1CCCCC1)Cc1ccccc1-2 (centres undefined)	0.92	-1
79	COc1ccc(CCNC(=O)CCc2c(C)nc3cc(-c4cccc(F)c4)nn3c2C)c(OC)c1	1	0.07
80	O=C(c1nn2c(C(F)(F)F)cc(-c3ccccc3)nc2c1Cl)N1CCOCC1	1	0.49
81	CN(C(=O)Cn1ncc2c1-c1ccccc1OC2)c1ccc(F)cc1	1	0.27
82	Cc1ccccc1NC(=O)Cn1nnc(-c2ccc(OCc3ccccc3F)cc2)n1	0.72	-2.7
83	CCN1CCN(c2oc(-c3ccccc3)nc2C#N)CC1	0.97	-0.033
84	COc1cccc(N2CCN(C(=O)CCn3c(=O)[nH]c4cc(OC)c(OC)cc4c3=O)CC2)c1	0.98	-0.51
85	CCOC(=O)c1cc(-c2ccccc2)n(CCC(=O)N2CCN(c3ccc(OC)cc3)CC2)c1C	0.66	-9
86	COc1ccc(OC)c(-c2cc(C(=O)O)c3cc(Br)ccc3n2)c1	0.89	-0.15
87	Cc1nn(CC(=O)N2CCC(Cc3ccccc3)CC2)c(=O)c2ccccc12	0.98	-0.2
88	Cc1ccc(S(=O)(=O)N2CC=C(C(=O)NC3CCCC3)CC2)cc1	1.2	2.5
89	CCOC(=O)CNC(=O)c1c(-c2ccccc2)noc1C	1.2	2.3
90	CCc1cccc(NC(=O)Cn2c(C(=O)OC)cc3occc32)c1	0.94	-1.7
91	CC1CCN(c2nnc(NC(=O)Nc3ccccc3Cl)s2)CC1	0.92	-0.31
92	COc1ccc(-n2c3c(cc(C(=O)Nc4ccc(OC)cc4OC)c2=O)C(=O)CC(C)(C)C3)cc1	1.1	1.6
93	CCCOc1ccc(Cc2nc3ccccc3n(C)c2=O)cc1	1.1	2
94	Cc1oc(-c2cccc(Cl)c2)nc1CS(=O)(=O)CC(=O)NC1CC1	1	-0.07
95	COc1cc(OC)cc(C(=O)Nc2ccc3nc(N4CCC(C)CC4)cc(C)c3c2)c1	0.89	-1.8
96	Cc1cc(N2CCC(C)CC2)nc2ccc(NC(=O)Cc3ccc(Cl)c(Cl)c3)cc12	1.1	0.96
97	COc1ccccc1CNC(=O)C1CCCN(S(=O)(=O)c2ccc(Br)s2)C1 (centres undefined)	1.1	1.1
98	O=C(CSc1ncc(-c2ccccc2)[nH]1)Nc1ccc(Cl)cc1	0.84	-4.2
99	Fc1ccc(Cc2nnc(-c3ccc(F)cc3)o2)cc1	0.97	-0.7
100	CCOc1cccc(C(=O)N(Cc2ccc(C(C)C)cc2)C2CCS(=O)(=O)C2)c1 (centres undefined)	0.92	-1

New compounds follow
entry	Molecule	CBX7 inh	CBX7 inh z-score
101	CCOc1ccc(NC(=O)NCCN2CCc3ccccc3C2)cc1	0.87	-3.2
102	CCc1nc(NCCC(C)C)c(C#N)c2c1COC(C)(C)C2	1	0.064
103	C=CCN1C(=O)c2ccccc2Sc2ccc(C(=O)NCCC)cc21	0.92	-1.1
104	Cc1cc2nc(C)n(CCCNC(=O)Nc3ccccc3)c2cc1C	1.1	2.2
105	COC(=O)C(C)Sc1nnc(Cc2cc(=O)[nH]c(=O)[nH]2)n1-c1cc(C)ccc1C (centres undefined)	1.1	0.15
106	COc1ccc(-n2c(Cc3cc(=O)[nH]c(=O)[nH]3)nnc2SCC(=O)Nc2ccc(F)cc2)cc1	0.85	-2.2
107	Cc1nn(CC(=O)NCC2CCCO2)c2ccccc12 (centres undefined)	1	0.11
108	CCOc1ccc2nc(NC(=O)Cn3nc(Cc4cccnc4)c4ccccc4c3=O)sc2c1	0.98	-0.66

Filtered by structure: the entries above containing a thiophene ring, fused or not
entry	Molecule	CBX7 inh	CBX7 inh z-score
4	O=C(CCCCn1c(=O)[nH]c2ccsc2c1=O)NC1CCN(Cc2ccccc2)CC1	1	-0.076
5	CC1(C)CC(=O)C2=C(C1)N(c1ccc(C(F)(F)F)cc1)C(=O)CC2c1ccsc1 (centres undefined)	0.99	-0.089
13	O=C(NC1CCCCCC1)C1CCCN(S(=O)(=O)c2cccs2)C1 (centres undefined)	0.99	-0.0096
14	Cc1oc(-c2cccs2)nc1CSCC(=O)NCc1ccccc1	0.97	-0.55
19	COc1ccc(N2CCN(CCCNC(=O)c3csc4c3CCCCC4)CC2)cc1	0.88	-3.1
23	CCCCNS(=O)(=O)c1ccc2nc(-c3cccs3)cc(C(=O)NC3CC3)c2c1	1	0.18
51	Cc1cccc2c1-c1sc(C(=O)NC3CCCCCC3)cc1CO2	1.4	15
71	CCOC(=O)C1CCCN(c2c(NCc3cccs3)c(=O)c2=O)C1 (centres undefined)	1	0.66
73	Cc1ccccc1OCc1nc(-c2ccc(NC(=O)c3cccs3)cc2)no1	0.99	-0.18
75	CCC1=Nc2cc(C(=O)NCc3cccs3)ccc2Sc2ccc(Cl)cc21	1	0.69
97	COc1ccccc1CNC(=O)C1CCCN(S(=O)(=O)c2ccc(Br)s2)C1 (centres undefined)	1.1	1.1

Bioassay records from PubChem.
